High-throughput results as filed in PubChem.
Lassa entry inh: qHTS for Inhibitors of binding or entry into cells for Lassa Virus; 1.2% of 300,000 active; AID 540256, 2011; Lassa virus pseudotype entry inhibition, cell reporter; control for the full effect not named in the record; Potency, µM (titrated, usually from 37.9 µM), for inactives: top-dose activity change, negative = inhibition, usual class: inhibitors; active means well fitted inhibition curve with a large enough effect; inconclusive means small, poorly fitted or top-dose-only effect, or effect the other way; inactive means flat fitted curve, though single readings scatter; tested in HEK293 cells; further: on the % scale 0 is the no-effect control and ±100 the full control effect; nearly all actives have a fitted effect of over 50% in size; luciferase read-out
Cruzain inh noDet: qHTS Assay for Promiscuous and Specific Inhibitors of Cruzain (without detergent) | AID 1476, 2009 | purified cruzain, Z-FR-AMC fluorescence, no detergent | Potency, µM, inactives show max response, negative = inhibition, usual class: inhibitors | 2.3% of 200,000 active; active means well fitted curve in the direction sought with a large enough effect; inconclusive means small, poorly fitted or top-dose-only effect, or another doubt; inactive means no such curve, though single readings can be large; an effect the other way counts as inactive or inconclusive;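 further: plate controls were enzyme without inhibitor for no effect and buffer without enzyme for full effect; nearly all actives have a fitted effect of over 40% in size; top concentration of the series not given in the record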
Target sequence (P25779 123-467 limits assumed): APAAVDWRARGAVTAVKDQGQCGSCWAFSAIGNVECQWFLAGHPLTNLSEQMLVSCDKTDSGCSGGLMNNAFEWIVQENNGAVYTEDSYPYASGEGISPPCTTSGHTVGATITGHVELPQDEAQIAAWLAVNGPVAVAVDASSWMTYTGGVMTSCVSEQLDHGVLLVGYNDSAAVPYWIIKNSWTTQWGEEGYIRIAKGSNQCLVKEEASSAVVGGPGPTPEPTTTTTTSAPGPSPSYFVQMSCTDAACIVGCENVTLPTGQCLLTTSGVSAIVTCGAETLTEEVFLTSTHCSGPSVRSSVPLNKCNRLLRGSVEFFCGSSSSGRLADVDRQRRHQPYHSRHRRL
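Detergent-free condition (0.00005% Triton X-100) in acetate buffer pH 5.5 with DTT. 1.5 nM enzyme and compound were pre-mixed 15 min, then 2 uM Z-FR-AMC substrate added; reaction progress from fluorescence change between first and third reads (60 s).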
RE007 growth inh: qHTS Assay for Inhibitors of the HIV-1 protein Vpr; Potency, µM (series often up to 92.2 µM), for inactives: top-dose activity change, negative = less growth; S. pombe RE007 Vpr strain, BacTiter-Glo ATP luminescence, 24 h; control for the full effect not named in the record; 0.21% of 360,000 active; active = well fitted falling curve with a large enough effect; inconclusive = small, poorly fitted or top-dose-only effect; inactive = no such curve, though single readings can be large or run the other way;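 further: on the % scale 0 is the no-effect control and ±100 the full control effect; nearly all actives have a fitted effect of over 50% in size; the assay follows cell death caused by Vpr and the record does not say whether a fall means rescue or toxicity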
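Fission yeast RE007 carrying one integrated HIV-1 vpr copy, seeded at OD 0.01 in PMG+AL medium with 23 nL pinned compound. Grown 24 h at 30 degrees; viability read by BacTiter-Glo luminescence after 5 min.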
Cruzain inh Det: qHTS Assay for Promiscuous and Specific Inhibitors of Cruzain (with detergent) | Cruzipain (Trypanosoma cruzi), P25779 | purified cruzain, Z-FR-AMC fluorescence, 0.01% Triton | Potency, µM, without a hit: max response, negative = inhibition, usual class: inhibitors | 0.43% of 200,000 active; active means well fitted curve in the direction sought with a large enough effect; inconclusive means small, poorly fitted or top-dose-only effect, or another doubt; inactive means no such curve, though single readings can be large; an effect the other way counts as inactive or inconclusive;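 further: plate controls were neutral wells for no effect and buffer without enzyme for full effect; nearly all actives have a fitted effect of over 40% in size; top concentration of the series not given in the record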
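Cruzain (1.5 nM) preincubated 15 min at RT with compound in 100 mM sodium acetate pH 5.5, 5 mM DTT, 0.01% Triton X-100. Reaction started with 2 uM Z-FR-AMC; AMC fluorescence (ex 360/em 450 nm) change over 60 s gave rate.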
StopGo reporter: High Throughput Screening for Foot and Mouth Disease Virus Antivirals; human cells with a luciferase reporter of 2A StopGo recoding; control for the full effect not named in the record; Potency, µM (doses to about 57.9 µM), for the others: top-dose signal change, negative = less light; 1.2% of 410,000 active; AID 1159524, 2015; active = well fitted falling curve with a large enough effect; inconclusive = small, poorly fitted or top-dose-only effect; inactive = no such curve, though single readings can be large or run the other way; tested in HEK293T cells; further: on the % scale 0 is the no-effect control and ±100 the full control effect; nearly all actives have a fitted effect of over 45% in size; luciferase light after 4 h
MARV entry inh: qHTS for inhibitors of binding or entry into cells for Marburg Virus | Marburg virus pseudotyped entry inhibition, cell reporter; control for the full effect not named in the record; about a third of the inactives were read at about 46 µM | Potency, µM (top dose mostly 37.8 µM), without a hit: at the top dose activity change, negative = inhibition, usual class: inhibitors | 1.8% of 300,000 active | AID 540276, 2011; active = well fitted inhibition curve with a large enough effect; inconclusive = small, poorly fitted or top-dose-only effect, or effect the other way; inactive = flat fitted curve, though single readings scatter; tested in HEK293 cells; about a fifth of its hits are not listed in these tables; further: on the % scale 0 is the no-effect control and ±100 the full control effect; luciferase read-out
NS1 inh: qHTS Assay for Inhibitors of Influenza NS1 Protein Function | S. cerevisiae slowed by influenza A NS1, growth recovery by OD600 | Potency, µM (doses to about 46.1 µM), without a hit: at the top dose activity, positive = more growth | 0.4% of 270,000 active | AID 2326, 2010; further: actives are rising curves; nearly all actives have a fitted effect of over 50% in size
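A cell-based growth assay was used: compounds that relieve NS1-induced slow growth of budding yeast raise OD600. Assay medium was yeast nitrogen base with ammonium sulphate and -URA supplement, pH 6.0, with 2% galactose.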
SARS PLpro yeast: qHTS of Yeast-based Assay for SARS-CoV PLP; S. cerevisiae expressing SARS-CoV PLpro, growth rescue; control for the full effect not named in the record; Potency, µM (titrated, usually from 32.9 µM), for inactives: at the highest dose activity, positive = growth rescue; 0.19% of 330,000 active; AID 485353, 2010; further: 0% is about no effect; nearly all actives have a fitted effect of over 55% in size; growth read by luminescence after 48 h
The depositor's hits bear a star; ? = inconclusive; nt = not tested or not shown; & = joins results of further samples; [ ] = another dose, or the depositor's remark. Unless noted, the call rests on the fitted dose curve; in most records, active means well fitted rising curve with a large enough effect; inconclusive means small, poorly fitted or top-dose-only effect; inactive means no such curve, though single readings can be large or run the other way. Potency means the concentration at half of the fitted maximal effect. Random draw from the library (roughly 4.7% active in at least one column).

SMILES | Lassa entry inh | Cruzain inh noDet | RE007 growth inh | Cruzain inh Det | StopGo reporter | MARV entry inh | NS1 inh | SARS PLpro yeast
CCOC(=O)N1CCN(Cc2nc3ccc([N+](=O)[O-])cc3c(=O)n2-c2cccc(OC)c2)CC1 | nt | nt | 27% | nt | 2% | nt | 13% | -2%
CO/N=C(/CS(=O)(=O)c1ccc(C)cc1)c1ccc(OC)cc1 | -11% | -6% | -11% | 1.3% | -7% | 27% | -9% | -15%
COc1ccc(-n2ncc3c(NC4CCCC4)ncnc32)cc1 | -4%[46.1 µM] | -18% | nt | -1.2% | -33% | nt | nt | nt
Cc1ccccc1OCC(=O)Nc1sc(C(=O)Nc2cccc(C)c2C)c(C)c1C#N | 11% | 7.9µM* | -6% | 5.1% | 13% | -5% | 10% | 12%
Cc1cc(C(=O)OCC(=O)N2CC(=O)Nc3ccccc32)c(C)n1-c1ccc(F)cc1 | ? | 6% | 4% | -8.2% | -18% | ? | 7% | 4µM*
Fc1ccccc1CNC1CN2CCC1CC2 (stereo unspecified) | nt | nt | 0% | nt | 2% | 1%[46.1 µM] | 1% | 0%
CN1CCN(S(=O)(=O)c2ccc3c(c2)NC(=O)C2CCCN32)CC1 (stereo unspecified) | 2% | 20% | -15% | 1.7% | -19% | 14% | 24% | 2%
CC(CO)NCC12CC3CC(CC(C3)C1)C2 (stereo unspecified) | ? | nt | -8% | nt | -8% | 0%[46.1 µM] | 5% | -1%
COC(=O)C(O)(CC(=O)Nc1cccc(SC)c1)C(F)(F)F (stereo unspecified) | 0% | 3% | -5% | 0.2% | nt | 21% | 3% | 8%
CCS(=O)(=O)N1CCCC(C(=O)N2CCc3ccccc3C2)C1 (stereo unspecified) | 9% | 3% | -4% | 2.5% | -2% | 23% | -2% | -14%
Cc1sc2nc(CSc3n[nH]c(N)n3)[nH]c(=O)c2c1C | 2% | nt | 6% | nt | 0% | 3%[46.1 µM] | nt | -5%
COc1cccc(CN(C(=O)c2ccccc2)C2CCS(=O)(=O)C2)c1 (stereo unspecified) | 18%[46.1 µM] | nt | 1% | nt | 30% | 15%[46.1 µM] | 19% | 5%
O=C1CC(c2ccco2)CC2=C1C1c3ccccc3C(=O)N1c1ccccc1N2 (stereo unspecified) | -9% | -2% | 2% | -4.3% | 20% | ? | 7%[9.22 µM] | 1%
Cc1cc(C)n(C(=O)/C=C/c2cccs2)n1 | 6%[46.1 µM] | nt | -16% | nt | 31%[activator] | 16%[46.1 µM] | -8% | 1%
CCCCN(CC)Cc1ccc(CNC(=O)Nc2ccc(Cl)cc2)o1 | ? | nt | -18% | nt | 0% | ? | nt | 0%
O=C(CCCCCN1C(=O)c2ccccc2C1=O)Nc1ccccc1 | -18% | 4% | -10% | -4.3% | -3% | -8% | -46% | 8%
N#CCOC(=O)C1c2ccccc2Oc2ccccc21 | -6%[46.1 µM] | nt | -9% | nt | 15% | 16%[46.1 µM] | -23% | -1%
Cn1cc(CN2CCC(O)CC2)c(-c2ccc(Oc3ccccc3)cc2)n1 | nt | nt | 15% | nt | 4% | nt | -2% | 0%
COc1ccc(NC(=O)CCNS(=O)(=O)c2cc(Br)cnc2N)c(OC)c1 | nt | nt | 4% | nt | 23% | nt | 4% | 2%
O=C(COc1ccc(Br)cc1Cl)Nn1cnnc1 | 20% | nt | 25% | nt | 4% | 27%[46.1 µM] | nt | 2%
CC(=C/c1ccccc1)/C=N/NC(=O)c1ccccn1 | ? | nt | -3% | nt | ? | ? | -38% | -4%
C/C(=N\NC(=O)Cc1ccc(Cl)cc1)c1ccc(F)cc1 | nt | nt | 0% | nt | -16% | nt | 2% | 21%
CCN(CC)C(=O)Cn1cc(S(=O)(=O)CC(=O)N2CCOCC2)c2ccccc21 | -1% | nt | 6% | nt | -10% | 18% | nt | nt
O=C(NCCCN1CCOCC1)[C@@H]1CSC2c3ccccc3C(=O)N21 (stereo partly specified) | 15% | 0% | 1% | -2.3% | -19% | ? | -2% | -7%
CC1CN(C(=S)Nc2ccc(Br)cc2)CC(C)O1 (stereo unspecified) | nt | nt | -2% | nt | 24% | nt | -14% | 19%
O=C(NCC(c1cccnc1)N1CCOCC1)c1ccc2c(c1)OCO2 (stereo unspecified) | 9% | -5% | -10% | -0.1% | -12% | ? | 0% | 2%
O=C1CC(c2ccccc2)Cc2nc(NCc3ccco3)ncc21 (stereo unspecified) | -25% | -4% | 5% | 0.9% | ? | -31% | -3% | -6%
C[C@H]1OC[C@@H](C[N+](C)(C)C)O1 | 4% | -4%&5% | 6% | -3.1%&-6.0% | -21% | ? | -4%&-4% | -12%
CCCCCCCCCCCCC(=O)CCCCC(=O)O | nt | nt | 16% | nt | -6% | nt | 2% | -3%
CN(C(=O)Cn1cnc2ccccc2c1=O)C1CCS(=O)(=O)C1 (stereo unspecified) | 0% | nt | 2% | nt | -14% | -6% | nt | -1%
C=CCn1c(SCC(=O)Nc2nc3ccccc3s2)nc(O)c(CC)c1=O | ? | nt | -2% | nt | -14% | ? | ? | -3%
O=C(NNC(=O)c1cc(C(F)(F)F)cc(C(F)(F)F)c1)c1ccc(Cl)cc1 | -27% | nt | -4% | nt | -25% | -19%[46.1 µM] | -4% | -1%
O=C1N(Cc2cccc(Cl)c2)C[C@@H]2C[C@@H](c3ccccn3)N3CCC[C@@]123 | nt | nt | -2% | nt | -1% | nt | 2% | 1%
CCN1CCN(C(c2cccs2)C(C)NC(=O)c2ccccc2)CC1 (stereo unspecified) | nt | -13% | 1% | -0.2% | -9% | nt | -31% | 8%
Cc1ccc(OCc2ccc(C(=O)Nc3nccs3)o2)cc1C | -2% | 1% | -11% | -0.9% | 24% | ? | 16% | 2%
O=c1oc(/C=C/c2ccco2)nc2sc3c(c12)CCC3 | ? | -6% | -1% | 1.9% | 22% | 15% | -12% | 9%
COc1ccc(CCNC(=O)C2CCN(S(=O)(=O)c3c(C)noc3/C=C/c3ccc(C)cc3)CC2)cc1OC | 7%[46.1 µM] | -1% | nt | -0.3% | -29% | nt | nt | nt
CC(C)CNS(=O)(=O)c1ccc(CCC(=O)NC2CCCC2)cc1 | nt | nt | 2% | nt | -4% | nt | -4% | -1%
COC(=O)C1=C(C)N(Cc2ccccc2)C(=NCc2cccc(C(F)(F)F)c2)N[C@H]1c1cccc(C(F)(F)F)c1 | nt | nt | 8% | nt | 40µM* | nt | 21% | -12%&-3%
CC(/C=C/c1ccccc1F)=N\NC(=O)c1cccc(F)c1 | ? | nt | -8% | nt | -11% | ? | nt | -2%
COCCCNC(=S)N/N=C/c1ccc(OC)c(Br)c1 | ? | nt | 3% | nt | -12% | 1%[46.1 µM] | -6% | 6%
COc1ccc(Cc2nc(N)nc(N)n2)cc1 | 0% | -10% | -6% | -2.2% | 10% | -18% | 3% | -1%
CC(C)CC1NC(=S)N(C2CCCCC2)C1=O (stereo unspecified) | 2% | -6% | -20% | 5.4% | -2% | ? | 12% | 3%
COCCn1ccc2c(OCC(=O)Nc3c(C)cc(C)cc3C)cccc2c1=O | -21%[46.1 µM] | -14% | nt | 0.1% | -1% | nt | nt | nt
CCCCNC(=O)c1cc(-c2ccc(Cl)c(Cl)c2)on1 | 3%[46.1 µM] | 6% | nt | -4.1% | 30%[activator] | 3%[46.1 µM] | nt | nt
Nc1ccc(C(=O)N2N=C(c3ccc(F)cc3)CC2(O)C(F)(F)F)cc1 (stereo unspecified) | nt | nt | -19% | nt | -27% | nt | -1% | -2%
Cc1csc2ncc(C(=O)N3c4ccccc4CC3C)c(=O)n12 (stereo unspecified) | nt | 2% | -18% | -6.3% | 1% | nt | -6% | 0%
CCOC(=O)COc1ccccc1C1C(C(=O)OC)=C(C)NC2=C1C(=O)c1ccccc12 (stereo unspecified) | -7%[46.1 µM] | 16% | nt | -5.9% | -18% | ? | nt | nt
NC(=S)Nc1nccc(-c2cccs2)n1 | 17%[46.1 µM] | nt | 12% | nt | 47%[activator] | 11%[46.1 µM] | nt | 3%
Cc1ccc(/C=N/n2c(C)n[nH]c2=S)o1 | 2% | -8% | 4% | 0.5% | 6% | 0% | 7% | -9%
(continued)
SMILES | Lassa entry inh | Cruzain inh noDet | RE007 growth inh | Cruzain inh Det | StopGo reporter | MARV entry inh | NS1 inh | SARS PLpro yeast
Cc1ccc(/C=N/NC(=O)Nc2ccccc2)o1 | ? | 1% | 22% | -6.4% | 31%[activator] | ? | -10% | -20%
NS(=O)(=O)c1ccc(CCNC(=O)CNC(=O)c2ccccc2F)cc1 | nt | nt | -5% | nt | 3% | 15%[46.1 µM] | -1% | 3%
CCNC(=S)NNC(=O)c1ccc(OC)cc1 | 7%[46.1 µM] | nt | 12% | nt | 9% | -25%[46.1 µM] | 3% | 0%
Cc1c(NC(=O)CN2C(=O)NC3(CCCCC3)C2=O)c(=O)n(-c2ccccc2)n1C | 22% | nt | -21% | nt | 6% | 3%[46.1 µM] | nt | 1%
O=[N+]([O-])c1ccc2c(c1)C(O)n1ncnc1S2 (stereo unspecified) | nt | nt | 0% | nt | -1% | -1%[46.1 µM] | 0% | 1%
CC1CC(C)CN(S(=O)(=O)N2CCCC(C(=O)NCCCN3CCOCC3)C2)C1 (stereo unspecified) | nt | nt | 2% | nt | -19% | nt | ? | 14%
CCc1cccc(NC(=O)Cn2ccn3nc(-c4ccc(OC)c(OC)c4)cc3c2=O)c1 | 5%[46.1 µM] | 3% | nt | 0.7% | -11% | nt | nt | nt
COc1ccc(CCNCc2c(C(=O)O)c(C)n(Cc3ccccc3C)c2C)c(OC)c1 | -4%[46.1 µM] | 13% | nt | -1.6% | -22% | 12%[46.1 µM] | nt | nt
COc1cccc(NC(=O)NNC(=O)c2ccc3c(c2)NC(=O)C(C)(C)O3)c1 | nt | nt | 2% | nt | 18% | -17%[46.1 µM] | 6% | 3%
CCNC(=O)CC1C(=O)N(c2ccc(F)cc2)C(=O)N1CCOC (stereo unspecified) | -2%[46.1 µM] | 2% | nt | 0.3% | -20% | 6%[46.1 µM] | nt | nt
